Bioassay records (PubChem)
NPYLR7 ag: activates Aedes aegypti NPYLR7 receptor | 270,000 compounds, 0.15% hits | activation, % at 10 µM | HEK293T NPYLR7/Galpha15, GCaMP6s calcium fluorescence | AID 1259423; in the data active means activation above about 40%;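 further: 0% = vehicle and 100% = reference agonist at the receptor; some compounds past the cut are filed as inactive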
NPYLR7 ag max-min: also measured in NPYLR7 ag; calls as there; activation, %; measured here: Max-Min RFU normalised activation; some inactives read as strong as hits;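 span of the calcium signal over five minutes; 0% = vehicle and 100% = native peptide agonist; compound fluorescence can raise it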
Numbers without * were called inactive; & = joins results of further samples. Not all compounds are listed. The share of hits here may be higher or lower than overall.

SMILES	NPYLR7 ag	NPYLR7 ag max-min
O=C(O)c1cc(S(=O)(=O)NCCc2ccc(Cl)cc2)ccc1O	2	0
O=C1c2ccccc2NC2(CCCCC2)N1/N=C\c1ccccc1	3	1
O=C(Nc1ccc(S(=O)(=O)N2CCCC2)cc1)c1ccc(Cl)s1	-6	-3
CNC(=O)CNS(=O)(=O)c1ccc(Cl)cc1	11	4
CN1C(=CC=C2C(=O)Oc3ccccc3C2=O)C(C)(C)c2ccccc21	49*	45*
COc1cc(NC(=O)NCCNc2nc(C)cc(N(C)C)n2)cc(OC)c1OC	2	2
CCN(CC)S(=O)(=O)c1ccc2c(c1)nc(SCc1ccc(S(C)(=O)=O)cc1)n2CC1CCCO1 (stereo not drawn)	4	0
COc1ccc(C=C2SC(=S)N(C(C)C)C2=O)cc1	-5	-6
Cn1c(=O)c2c(nc(SCc3ccc(F)cc3)n2Cc2ccccc2)n(C)c1=O	1	-3
O=C1CN(C(=O)c2nn(-c3ccc(F)cc3)c3c2CCC3)CCN1	10	13
Cc1ccc(C(=O)Oc2c(C)cccc2C)cc1S(=O)(=O)N1CCOCC1	14	8
CCSc1n[nH]c(=S)s1	2	9
COC(=O)C1C2C=CC3(CN(C4CCCCC4)C(=O)C13)O2 (stereo not drawn)	5	2
CN(Cc1ccc(N2CCOCC2)cc1)Cn1cnc2c(=O)n(C)c(=O)n(C)c21	1	-3
Cc1onc(-c2ccccc2)c1C(=O)Nc1ccc([N+](=O)[O-])cc1	-2	-7
COc1cc(C(=O)Nc2cccc(Cl)c2N(C)C)cc(OC)c1C	16	13
CC(C)N(C(=O)Cn1cc(SCC(=O)NC(C)(C)C)c2ccccc21)C(C)C	-5	-10
CC(C)n1c2ccccc2n2c(=S)[nH]nc12	-5	-9
O=C(Nc1cc(-c2ccccc2)nn1-c1cccc(F)c1)c1ccccc1F	18	8
Brc1cnc2nc(-c3ccccc3)[nH]c2c1	23	14
COc1cc(N2C[C@H]3CC=C(C)C[C@H]3C2)ncn1	0	1
CC1CCCN(S(=O)(=O)c2ccc(NCC(C(C)C)N3CCOCC3)c([N+](=O)[O-])c2)C1 (stereo not drawn)	-3	7
Cc1c(C)n2c3c(=O)n(C)c(=O)n(C)c3nc2n1-c1ccccc1O	20	8
CS(=O)(=O)c1ccc(C(O)CN2CCCC2CN2CCc3ccccc32)cc1 (stereo not drawn)	-3	-4
COc1cc2nc(-c3ccc(C)o3)cc(C(=O)NC3CCCC(C)C3C)c2cc1OC (stereo not drawn)	7	6
Following part.
SMILES	NPYLR7 ag	NPYLR7 ag max-min
CC(C)[C@@H]1CC[C@@H](C)C[C@H]1OCC(=O)N1CCN(Cc2cc(=O)c(OCc3ccc(C(C)(C)C)cc3)co2)CC1	23	12
CCN(CC)c1cc(C)nc(SCc2cccc(C(=O)NCCOC)c2)n1	-2	1
CC(C)OCCNC(=O)c1cc(N(C)C2CCCCC2)nc2ccccc12	3	1
COc1ccc(Cl)cc1NC(=O)N[C@@H](Cc1ccccc1)C(=O)N1CCC(C(=O)N2CCOCC2)CC1	15	27
CC(CCCCC(=O)Nc1ccc(C(F)(F)F)cc1)NCCc1cnc[nH]1 (stereo not drawn)	-1	-4
O=S(=O)(c1ccccc1)c1nc(NC2CC2)sc1Cl	3	7
CCCOCCN1CCN(c2ncnc3[nH]ccc23)CC1	3	0
COC(CNS(=O)(=O)c1cc(C(F)(F)F)ccc1C(F)(F)F)OC	-1	1
Cc1cc(C)c2c(n1)nn1c(N3CCCCC3)cc(C)nc21	-2	23
CC(C)c1cc(NC(=O)c2ccc(CN3CC=CC3)cc2)n(C)n1	-5	-6
CSc1nc2ccccc2n1CN1CCN(c2ccc(F)cc2)CC1	0	0
Cc1nc2c(-c3ccccc3)c(C)nn2c(NCCN(C)C)c1Cc1ccccc1	-2	-7
O=C(CCCSc1ccc(NC(=O)c2cccs2)nn1)Nc1ccccn1	1	-1
CC(C)c1nnc(-c2cc3ccccc3n2CC(=O)N2CCCC2)o1	-12	-5
Cn1c(=O)c2c(SCC(=O)N3CCOCC3)nc(-c3ccccc3F)nc2n(C)c1=O	-5	-14
Oc1ccccc1-c1nc2ccccc2s1	13	6
CC(CC(=O)Nc1c(-c2cccc(F)c2)nc2ccccn12)CC(C)(C)C (stereo not drawn)	-1	5
CCOc1ccccc1N1CCN(C(=O)c2csc(CN(CCOC)C(=O)Nc3ccccc3F)n2)CC1	11	12
COC1CCCC1OC(=O)C1CC1c1cccc(C#N)c1 (stereo not drawn)	-3	-5
Cc1ccc(N=C2SCCCN2C(=O)c2sccc2C)cc1Cl	2	2
CCOC(=O)c1cnc(-c2cccnc2)nc1NC(CC)c1ccccc1 (stereo not drawn)	11	7
COc1ccc(C2C=C(C(=O)O)Nc3c(C(N)=O)nnn32)cc1 (stereo not drawn)	-1	-6
CN(C)S(=O)(=O)N1CCN(c2cc(-c3ccccc3)nc3ncnn23)CC1	-4	-14
Cc1ccc(-n2ncc3c(C(C)C)nnc(SCC(=O)NC(C)C)c32)cc1C	-17	-22
CC(C)(C)NC(=O)c1cnn2c1NC(c1cccs1)CC2C(F)(F)F (stereo not drawn)	1	1

Retrieved one by one from the list above (5):
SMILES	NPYLR7 ag	NPYLR7 ag max-min
CN(Cc1ccc(N2CCOCC2)cc1)Cn1cnc2c(=O)n(C)c(=O)n(C)c21	1	-3
CC(C)n1c2ccccc2n2c(=S)[nH]nc12	-5	-9
Cc1nc2c(-c3ccccc3)c(C)nn2c(NCCN(C)C)c1Cc1ccccc1	-2	-7
COc1cc(C(=O)Nc2cccc(Cl)c2N(C)C)cc(OC)c1C	16	13
COc1cc(N2C[C@H]3CC=C(C)C[C@H]3C2)ncn1	0	1

Compound profiles, from the list above. Order of values: NPYLR7 ag	NPYLR7 ag max-min
Shown for `CN1C(=CC=C2C(=O)Oc3ccccc3C2=O)C(C)(C)c2ccccc21` → 49*	45*
Shown for `CC(C)c1nnc(-c2cc3ccccc3n2CC(=O)N2CCCC2)o1` → -12	-5

Following part:
SMILES	NPYLR7 ag	NPYLR7 ag max-min
CCc1nnsc1C(=O)Nc1ncc([N+](=O)[O-])s1	11	5
CCCc1n[nH]c(=S)n1CC(=O)Nc1ccc(N(C)C(C)C)c(F)c1	-3	0
CCOC(=O)c1cc(-c2ccc(CC)cc2)n(C2CCN(C(=O)c3cccc(Cl)c3)CC2)n1	2	0
CCCC(=O)Nc1nnc(CC(=O)N/N=C\c2ccc(O)cc2)s1	-3	-6
O=C(NCCN1CCCC1)c1ccccc1N1CCC(NC(=O)C2CCCC2)CC1	24	29
CSc1cccc(NC(=O)C2CCCCN2S(=O)(=O)c2ccc(C)cc2)c1 (stereo not drawn)	-2	-3
CC(=O)Oc1c(-c2ccc(NS(=O)(=O)c3ccc(C)cc3)cc2)c(-c2ccc(N(C)C)cc2)nn1-c1ccc(C)cc1C	-3	4
CCC(=O)Nc1cc(-c2ccccc2)nn1-c1ccc(Br)cc1	23	27
CCCCCCCCCCCCCCCCCCOCC(COP(=O)(O)OCC[N+](C)(C)C)OC (stereo not drawn)	-4	-14
CCc1cccc(NC(=O)C(=O)NCC2(O)CCCCC2)c1	1	1
Cc1cn2c3c(=O)n(CCN4CCCCC4)c(=O)n(C)c3nc2n1C1CCCCC1	14	6
Cc1sc2nc(C(C)N3CCc4ccccc43)[nH]c(=O)c2c1C (stereo not drawn)	6	2
c1ccc2c(c1)CN(CC1CCCOC1)Cc1ccccc1-2 (stereo not drawn)	0	0
CNc1c(C(=O)O)ccc2c1C(=O)c1ccccc1C2=O	3	3
Cc1ccc2nc(-c3cccc(Cl)c3)c(NC(C)(C)C)n2c1	5	2
CCC1CN(C(=O)c2cc(-c3cnn(C)c3)nc3c(C)c(C)ccc23)CCO1 (stereo not drawn)	2	4
CC(C)c1ccc(C(NC(=O)CCl)C(C)C)cc1 (stereo not drawn)	0	-3
COC1CN(C)C(=O)CN(C(=O)c2ccccc2)C1 (stereo not drawn)	-8	2
CCc1ccc(-n2c(C)cn3c4c(=O)n(C(C)C(=O)OC)c(=O)n(C)c4nc23)cc1 (stereo not drawn)	1	12
CCn1c(SCc2cccc(Oc3ccccc3)c2)nnc1-c1cc(-c2ccccc2)nc2ccccc12	2	10
O=C(Nc1cccc(-c2ccc(F)cc2)c1)C1CCCN(C2CCSCC2)C1 (stereo not drawn)	7&3	3&-3
O=C(Nc1ccc(Br)cc1)c1cccc(S(=O)(=O)Nc2ccc(F)cc2)c1	6	5
COCCCN(CC(=O)N(CCc1c[nH]c2ccccc12)Cc1ccc(OC)c(OC)c1)C(=O)COc1ccccc1	19	16
CCCOc1cc(Nc2ccc(NC(=O)Nc3ccc(Cl)cc3)cc2)nc(C)n1	17	10
CC(CNC(=O)C(C)n1cncn1)N1CCOCC1 (stereo not drawn)	8	5

Part of the list above, as comma-separated lines:
structure,NPYLR7 ag,NPYLR7 ag max-min
Cc1sc2nc(C(C)N3CCc4ccccc43)[nH]c(=O)c2c1C (stereo not drawn),6,2
c1ccc2c(c1)CN(CC1CCCOC1)Cc1ccccc1-2 (stereo not drawn),0,0
CNc1c(C(=O)O)ccc2c1C(=O)c1ccccc1C2=O,3,3
Cc1ccc2nc(-c3cccc(Cl)c3)c(NC(C)(C)C)n2c1,5,2
CCC1CN(C(=O)c2cc(-c3cnn(C)c3)nc3c(C)c(C)ccc23)CCO1 (stereo not drawn),2,4

The list continues.
SMILES	NPYLR7 ag	NPYLR7 ag max-min
CC(C)(C)c1ccc(S(=O)(=O)N2CCN(c3cccc(C(F)(F)F)c3)CC2)cc1	-2	-8
Cc1cc(C(=O)N2CCC(n3nccc3NC(=O)CCc3ccccc3)CC2)no1	3&-1	2&-1
CC(Cn1cncn1)NC(=O)c1csc2nc(-c3ccc(C(F)(F)F)cc3)cn12 (stereo not drawn)	3	1
N#CCc1ccc(NC(=O)N2CCN(c3ncccc3NC(=O)c3ccc4c(c3)OCO4)CC2)cc1	15	22
Cc1noc(-c2ccc(C(C)(C)C)cc2)c1C(=O)NCCC#N	13	28
CCOC(=O)N1CCN(C(c2cccc(OC)c2)c2c(O)cc(C)n(CC)c2=O)CC1 (stereo not drawn)	13	5
COc1cc(OC)cc(C2c3cccn3CCCN2Cc2cccc(Oc3ccccc3)c2)c1 (stereo not drawn)	17	27
COc1cccc2c1OCCCN(Cc1cccn1-c1ncccn1)C2	5	1
CC1(C)NC(=O)N(CN2CCN(S(=O)(=O)c3c(F)cccc3F)CC2)C1=O	-5	-7
COc1ccccc1-n1c(=O)c2ccc(Cl)cc2n(C(C)C(=O)NCCN2CCCC2)c1=O (stereo not drawn)	-4	4
CCN(CC)C(=O)c1sc(NC(=O)C2CC2c2ccccc2)c(C#N)c1C (stereo not drawn)	-2	-8
FC(F)(F)c1ccc(N2CCN(c3nccs3)CC2)nc1	14	7
CSc1ccc(CN2CCC2(C)C(=O)Nc2ccc3c(c2)OCCO3)cc1 (stereo not drawn)	0	1
O=C(NC1CC1)C1CCN(c2ccc(-c3ccc(F)cc3)nn2)CC1	-11	-15
COCCn1cc(NC(=O)C2(C)CC2(Cl)Cl)ccc1=O (stereo not drawn)	7	2
O=C(c1ccco1)N1CCN(c2nc(Cc3ccccc3)nc3onc(-c4cccc(Oc5ccccc5)c4)c23)CC1	15	5
CS(=O)(=O)N1CCC(NCc2cccc(-n3cccn3)c2)CC1	4	0
CC(=O)N1CCN(c2c(C)cnc3c2c(=O)n(CC(=O)NC(C)(C)C)c(=O)n3C)CC1	3	1
COc1ccc(-c2nccn2-c2cccc(CO)c2)c(Cl)c1OC	0	0
C=CCOC1C[C@](OCc2cccc(OC)c2)(C(=O)NCCN(C)C)C[C@H]2OC(C)(C)O[C@@H]12 (stereo partly drawn)	27	26
Cc1cn(CC(=O)N(Cc2ccsc2)CC(C)C)c(=O)[nH]c1=O	4	15
COc1ccc(OC)c(-c2nc3ccccc3nc2C)c1	-1	-1
O=c1[nH]c(COc2ccc(F)cc2)nc2sc3c(c12)CCC3	-20	-23
COCCN(Cc1cc(NC(=O)C2CC2)ccc1N(C)C)S(=O)(=O)c1ccc(F)cc1	30	35
O=C(CN1CCN(C(=O)c2cccnc2)CC1)Nc1ccc(F)cc1	0	8
(continued)
SMILES	NPYLR7 ag	NPYLR7 ag max-min
Cc1cc(Oc2cc(N3CCN(c4ccccc4F)CC3)ncn2)ccc1Cl	-4	2
O=C(O)[C@H]1[C@H]2O[C@H](C[C@@H]2c2ccccc2)[C@H]1C(=O)O	3	1
CN1CCN(c2nc3nonc3nc2N2CCCCC2)CC1c1ccccc1 (stereo not drawn)	2	2
Cc1nc2sccn2c1C=C(C#N)c1nc2ccccc2s1	5	3
COc1cccc2ccc(CN(C)Cc3cc(-c4ccccc4)no3)nc12	0	0
CCOCCn1ccc2c(OCC(=O)c3ccc(OC)cc3)cccc2c1=O	-2	14
CC1(C(=O)NS(=O)(=O)c2ccccc2Cl)CCN1C(=O)c1ccccc1 (stereo not drawn)	2	0
CC(C)CC(CN(C)C)NC(=O)c1cnc(C2CC2)s1 (stereo not drawn)	2	11
COc1ccc(COc2ccc(N(C)C(N)=O)cc2)c(Cl)c1	-6	-6
COCCCNC(=O)C(NC(=O)C1CC1)C1CCN(C(=O)C2CCCC2)CC1 (stereo not drawn)	5	7
Cc1cc2nc(SCc3ccc([N+](=O)[O-])cc3)nc(C)c2cc1C	1	-1
COc1ccc(N2CCN(C(=O)C3CC=CCC3C(=O)NCCNc3cccc4ccccc34)CC2)cc1 (stereo not drawn)	-8	-13
COC(=O)Cn1c(O)c(N=NC(=O)CNC(=O)c2ccccc2F)c2ccccc21	5	11
COc1ccc(CC(=O)Nc2ccc(SCC(=O)N3CCCC3)nn2)cc1OC	-3	-4
Cc1ccc(CNC(=O)CCC2CCCN(c3nc4ccccc4s3)C2)o1 (stereo not drawn)	7	4
CC1CCCCC1NC(=O)CON=C(N)CN1CCOC(C)(C)C1 (stereo not drawn)	-6	-8
CCN1CCN(C(=O)c2ccc(Cn3ccsc3=NC(=O)c3ccc(OC)c(OC)c3)o2)CC1	45*	45*
